# Calb biofilm kill – mixtures killing C. albicans biofilm; C. albicans biofilm persisters + clotrimazole, fluorescence viability; primary screen in compound mixtures of four per well; inhibition, % at 7.6 µM; hit rate 0.02% among 120,000; AID 1242;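 active = inhibition above 30.3% in the primary screen of four-compound pools, then above 30% when the compound was retested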;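 note: compounds exposed to preformed 24 h biofilms for 48 h; the number belongs to the whole pool; some results filed as inactive read as strong as hits; inactives centre near 12; 0% = biofilm with clotrimazole alone and 100% = kill control; retested singly at about 60 µM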
#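 Test system: C. albicans CAF4-2 wild-type biofilms; buffer or medium: RPMI/MOPS medium, pH 7.0; schedule: 24 h biofilm formation, then 48 h compound exposure, 37 °C; detection: Alamar Blue fluorescence; measure: percent inhibition of biofilm viability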
# * marks the source's active call; other numbers are inactive results.
# Start of the listing, in advance, five compounds:
Structure | Calb biofilm kill
Cc1ccc(F)cc1NC(=S)NCCc1ccccc1 | 4
CN1CCN(NC(=O)Nc2cccc(Cl)c2Cl)CC1 | 11
O=C(COc1cccc(NC(=O)c2cccc([N+](=O)[O-])c2)c1)c1ccc(F)cc1 | 10
O=C(NC(CO)Cc1ccc([N+](=O)[O-])cc1)C(Cl)Cl (stereo unspecified) | 7
Cc1nnc(SCC2=C(C(=O)O)N3C(=O)C(NC(=O)c4cccc(F)c4F)C3SC2)s1 (stereo unspecified) | 17

# All compounds of this part, repeating the preview:
Structure | Calb biofilm kill
Cc1ccc(F)cc1NC(=S)NCCc1ccccc1 | 4
CN1CCN(NC(=O)Nc2cccc(Cl)c2Cl)CC1 | 11
O=C(COc1cccc(NC(=O)c2cccc([N+](=O)[O-])c2)c1)c1ccc(F)cc1 | 10
O=C(NC(CO)Cc1ccc([N+](=O)[O-])cc1)C(Cl)Cl (stereo unspecified) | 7
Cc1nnc(SCC2=C(C(=O)O)N3C(=O)C(NC(=O)c4cccc(F)c4F)C3SC2)s1 (stereo unspecified) | 17
O=C(N/N=C/C=C\c1ccccc1)c1cnccn1 | 24
COc1cc(C=O)ccc1OCc1ccc(Cl)nc1 | 9
O=C(NC1CCCCCC1)C1CCC(CNS(=O)(=O)c2ccc(Br)s2)CC1 (stereo unspecified) | 14
CCCCCn1c(=N)n(CC(O)COc2ccccc2OC)c2ccccc21 (stereo unspecified) | 12
COC(=O)c1c(-c2ccccc2)csc1N1C(=O)Nc2ccccc2N1O | 14
COc1cc(OC)cc(C(=O)NC(=S)N2CCCCCC2)c1 | 1
CCCCCN(C(=O)NC(=O)Nc1ccc(C)cc1)S(=O)(=O)c1ccccc1 | 9
O=C(/C=C/c1cccs1)N1CCN(c2ccccc2F)CC1 | 3
COC(=O)[C@H](CC(C)C)NC(=O)NCCCc1ccccc1 | 6
O=c1oc(-c2ccco2)nc2sc3c(c12)CCCCC3 | 0
O=C(NNC(=O)C1CCCO1)c1ccc(F)cc1 (stereo unspecified) | 13
CCOc1cc(C)c(S(=O)(=O)N2CCCCC2)cc1C | 2
Cc1ccc(OC(C)C(=O)N=Nc2c(O)[nH]c3ccc([N+](=O)[O-])cc23)cc1 (stereo unspecified) | 14
Cc1[nH]c(=O)[nH]c(=O)c1N(C)C | 13
O=C(CCSc1ccccc1)Nc1ccc(S(=O)(=O)Nc2ncccn2)cc1 | 16
CCOC(=O)C(CCCCCCC(NC(C)=O)(C(=O)OCC)C(=O)OCC)(NC(C)=O)C(=O)OCC | 31
CCN(CC)S(=O)(=O)c1ccc(N2Cc3ccccc3C2=N)cc1 | 6
COc1ccc(CCNC(=O)COc2ncnc3ccccc23)cc1OC | 15
O=c1[nH]c2cc3c(cc2cc1CN(CCCO)C(=S)NCc1ccco1)OCO3 | 25
Cc1cc(OC(=O)c2ccc(S(=O)(=O)N3CCCC3)cc2)c([N+](=O)[O-])c(=O)[nH]1 | 15
COc1ccccc1C/C(N)=N/OC(=O)c1cccc([N+](=O)[O-])c1C | 7
Cc1cccc(C(=O)NCC(=O)OCC(=O)N2CCCCC2)c1 | 7
Cc1ccc(NC(=O)CSc2ccc(-c3cccnc3)nn2)cc1Cl | 18
COC(=O)c1cnc(Nc2cccc(C(F)(F)F)c2)c([N+](=O)[O-])c1 | 20
CC(=O)NCCc1nc2cc(NC(=O)c3cccs3)ccc2n1C | 12

Structure | Calb biofilm kill
Cc1c(NC(=O)/C(C#N)=C/c2c(Oc3ccccc3)nc3ccccn3c2=O)c(=O)n(-c2ccccc2)n1C | 13
Cc1ccc2c(c1)nnn2C1CCN(C(=O)c2ccccc2F)CC1 | 16
Fc1ccc(NC(=S)N2CCOCC2)cc1Cl | -4
Cc1ccc(CSc2nnc(SCC(=O)N/N=C/c3ccccc3OCC(=O)O)s2)cc1 | 15
Cc1cccc(CC(=O)c2c[nH]c3ccccc23)c1 | 11
O=C(Cc1cc(=O)[nH]c(=O)[nH]1)NCc1ccc(Cl)cc1 | -3
CN(C(=O)c1ccc(COc2ccccc2Br)o1)c1ccccc1 | 16
O=C(NCc1ccncc1)C(=O)Nc1nccs1 | 32
NC(=O)C1CCN(CC(=O)Nc2ccccc2Sc2ccccc2)CC1 | 15
COc1ccc(S(=O)(=O)N2CCCC(C(=O)NCCC(C)C)C2)cc1 (stereo unspecified) | 15
C=CCn1c(-c2cc(-c3ccc(C)cc3)nc3ccccc23)n[nH]c1=S | 1
Cc1ccc(-n2nnnc2SCC(=O)NC2CCCc3ccccc32)cc1 (stereo unspecified) | 20
O=C(O)c1ccc(/C=N/Nc2ccc(C(F)(F)F)cn2)cc1 | 6
CN(Cc1cn(C)nc1-c1ccccc1F)Cc1nccn1C | 6
COc1ccc(CNC(=S)NC(C)CCc2ccccc2)cc1 (stereo unspecified) | 9
OCCN1CCN(CCCN2c3ccccc3Sc3ccc(C(F)(F)F)cc32)CC1 | 16
CC1=NN(c2ccccc2)C(=O)C1C(=O)c1ccc([N+](=O)[O-])cc1 (stereo unspecified) | 4
c1ccc(-c2noc(-c3ccno3)n2)nc1 | 15
COC(=O)[C@H]1Cc2cnoc2C[C@]1(C)C(=O)O | 16
N=C1C(c2nc3ccccc3[nH]2)=C(O)CN1NC(=O)COc1cccc(F)c1 | 16
C=CCn1c(-c2ccccc2OCC)n[nH]c1=S | 44
CSc1ccc(NC(=O)Nc2cc(C)ccn2)cc1 | 6
CN(C)CCCNc1nc(N)c([N+](=O)[O-])c(NCCO)n1 | 7
O=C1CCCC2=C1C(c1cccc(O)c1)C1=C(N2)c2ccccc2C1=O (stereo unspecified) | 4
CN1CCN(CCCc2c3c(cc4c2CCC4)CCC3)CC1 | 5
CN(C)C(=O)CNc1n[nH]c(=S)[nH]c1=O | 5
Nc1nc(CN2CCN(c3ccccc3)CC2)nc(Nc2ccc(Cl)cc2)n1 | -14
CC(=O)c1c(C)[nH]c(C(=O)CN2C(=O)NC(C)(CCC(C)C)C2=O)c1C (stereo unspecified) | 10
CCc1ccc(NC(=S)N2CCNC(=O)C2CC(=O)OC)cc1 (stereo unspecified) | 2
CCCOc1ccc(-c2c(C(=O)N/N=C/c3ccc(OC)cc3)nnn2-c2nonc2N)cc1 | 8

Structure | Calb biofilm kill
CCCC(=O)NC(c1cccs1)c1cc([N+](=O)[O-])c2cccnc2c1O (stereo unspecified) | 18
O=C(N=Nc1c(O)[nH]c2ccccc12)c1ccc2c(c1)OCO2 | 12
COc1ccc(Cl)cc1NC(=O)CN1C(=O)CC(C)S(=O)(=O)c2ccccc21 (stereo unspecified) | 15
COCC(O)CNc1ccccc1 (stereo unspecified) | 14
Cn1cc(S(=O)(=O)N2CCC(C(N)=O)CC2)c(=O)n(C)c1=O | 19
COC(=O)/C=C1\N/C(=N\c2nc(C)cc(C)n2)N(c2ccc(Cl)cc2)C1=O | 8
O=C(CN1C(=O)S/C(=C\c2ccc(O)cc2)C1=O)c1ccccc1 | 7
CCOCCCNC(=O)/C(C#N)=C/c1ccccc1F | 9
COC(=O)c1ccc(-c2csc(NC(=O)c3ccc(S(=O)(=O)N4CCc5ccccc5C4)cc3)n2)cc1 | 21
Cc1ccc(C(=O)N/N=C2\CCCc3ccccc32)c(C)c1 | 16
O=C(/C=C/c1ccccc1)c1ccccc1 | 1
CCN1CC(CN(C)Cc2nc(-c3ccco3)oc2C)CC1=O (stereo unspecified) | 7
Cc1nc(NC(=S)NC(=O)c2cccs2)ccc1Br | 16
O=C1c2ccccc2C(=O)N1CCCCON1C(=O)c2ccccc2C1=O | 12
CCOC(=O)N1CCc2c(sc3nc4n(c(=O)c23)N=C(c2ccc(OC)cc2)CS4)C1 | 10
CCOC(=O)c1ccc(Oc2c(C)oc3cc(OS(C)(=O)=O)ccc3c2=O)cc1 | 2
CCn1c(=O)n(CC(=O)Nc2ccc(F)cc2)c(=O)c2ccccc21 | 10
COc1c(OC)c(O)c2c(=O)c(O)c(-c3ccccc3)oc2c1OC | 0
COc1cc(SC)ccc1C(=O)N(Cc1ccccc1)c1ccccn1 | 22
Cn1nnnc1SCC(=O)N1CCN(S(=O)(=O)c2ccccc2)CC1 | -6
Cc1nn2c(NCCN(C)C)c3c(nc2c1-c1ccccc1)CCCC3 | 15
Cc1cc(C)n2nc(SCc3ncc(-c4ccccc4)o3)nc2n1 | 7
NC(=O)CSc1nc2ccccc2nc1SCC(N)=O | 25
CCC(C)(C)NC(=O)C(c1ccncc1)N(C(=O)c1sc(C)nc1C)c1ccc(F)cc1 (stereo unspecified) | 10
CC(=O)c1ccc(NC(=O)CCCN2C(=O)/C(=C/C(C)=C/c3ccccc3)SC2=S)cc1 | 13
Cc1oc(S(=O)(=O)N2CCOCC2)cc1C(=O)Nc1ccc(F)cc1 | 24
CC(C)(C)c1ccc(C(=O)N2CCCN(c3ccc([N+](=O)[O-])cn3)CC2)cc1 | 5
COc1cc(/C=N/n2cnnc2)ccc1OCC(=O)N1CCOCC1 | 14
COC(=O)c1sccc1NC(=O)CC1C(=O)NCCN1C(=O)Nc1ccccc1 (stereo unspecified) | 18
O=C(COC(=O)CNC(=O)c1ccc(F)cc1)Nc1cccc(S(=O)(=O)N2CCCC2)c1 | 13

# Structural class, those above containing bromine
Structure | Calb biofilm kill
O=C(NC1CCCCCC1)C1CCC(CNS(=O)(=O)c2ccc(Br)s2)CC1 (stereo unspecified) | 14
CN(C(=O)c1ccc(COc2ccccc2Br)o1)c1ccccc1 | 16
Cc1nc(NC(=S)NC(=O)c2cccs2)ccc1Br | 16

# (continued)
Structure | Calb biofilm kill
O=C(Cn1cc([N+](=O)[O-])cn1)NCC1CCCO1 (stereo unspecified) | 8
O=C(NCc1cccs1)C(=O)c1cn(CC(=O)N2CCOCC2)c2ccccc12 | 15
CC1(C)CC2CC(C)(CN2C(=S)NC(=O)c2ccccc2Cl)C1 (stereo unspecified) | 17
COc1cc(CN2CCN(Cc3ccc(C)cc3)CC2)c([N+](=O)[O-])cc1OC | -4
COc1ccc(OC)c(/C=C/C(=O)OCC(=O)Nc2ccc(Cl)c(S(=O)(=O)N(C)C)c2)c1 | 23
CSc1cccc(NC(=O)N2CCN(C)CC2)c1 | 10
CCN(CC)C(=O)C(=O)c1cn(CC(=O)NCC2CCCO2)c2ccccc12 (stereo unspecified) | 1
CCOc1ccc(-n2c(SCC(N)=O)nc3sc4c(c3c2=O)CCN(C)C4)cc1 | 13
COc1cc(Cl)c(C)cc1NC(=O)[C@@H]1CCCN1C(=O)c1cccs1 | 7
CCCOc1ccc(N2C(=O)CC(N3CCN(CCN=CC4C(=O)CC(C)(C)CC4=O)CC3)C2=O)cc1 (stereo unspecified) | 11
CCNc1ccc(C(=O)OCC(=O)N2c3ccccc3NC(=O)C2(C)C)cc1[N+](=O)[O-] | 6
Cc1ccnc(N/C=C(/NC(=O)c2ccccc2)C(=O)N/N=C\c2ccc(Cl)cc2)n1 | 5
CCOC(=O)c1c(C)[nH]c(C2=NNC(=NC(C)COC)SC2)c1C (stereo unspecified) | 21
C=CCc1cccc2cc(C(=O)Nc3ccc(F)cc3)c(=O)oc12 | 21
O=C1CN(C(=O)COC(=O)c2ccccc2O)c2ccccc2N1 | 19
O=C(Cn1nnc(N2CCCCC2)n1)c1ccc(Cl)c(Cl)c1 | 18
COc1ccc(OC)c(NC(=O)COC(=O)c2cc3c(s2)CCC3)c1 | 10
COc1ccc(N2C(N)=C(C#N)C(c3ccsc3)C3=C2CCCC3=O)c(OC)c1 (stereo unspecified) | -2
Cn1c(CC(=O)NC(C)(C)CO)c(Sc2ccccc2)c2ccccc21 | 19
CC(=O)N1CCN(C(=S)Nc2cc(S(=O)(=O)N3CCOCC3)ccc2Cl)CC1 | 6
Cc1ccc(-c2csc(NC(=O)C3=NN(c4ccccc4)C(=O)CC3)n2)cc1 | 20
COc1cc2c(cc1OC)C(C)N(C(=O)c1cc3c(=O)oc4ccc(C)cc4c3s1)CC2 (stereo unspecified) | 20
CCOC(=O)c1c(NC(=O)C[n+]2ccccc2)sc2c1CCCC2 | 11
O=C(CCn1c(=O)oc2ccccc21)N(Cc1ccccc1)c1ccccn1 | 13
COc1cccc(CNC(=O)CN2C(=O)CC(c3ccccc3)=Nc3ccccc32)c1 | 5
COc1cc(C(F)(F)F)c(C(=O)N(C)Cc2ccc(Cl)c(Cl)c2)cn1 | 8
CN1Cc2c(N3CCOCC3)nc3sc(C(=O)c4ccccc4)c(N)c3c2CC1(C)C | 0
CCOc1cc(/C=N/NC(=O)c2nn(C)cc2Br)ccc1OCc1ccccc1Cl | 17
CCOC(=O)c1c(NC(=O)c2c(Br)cnn2CC)sc(C)c1C | 20
Cc1nc2ccccc2cc1C(=O)N/N=C/c1ccccc1[N+](=O)[O-] | 20

Structure | Calb biofilm kill
COc1ccc(/C=C\c2onc(C)c2S(=O)(=O)N2CCC(C(=O)NCc3ccco3)CC2)cc1 | 31
O=C(Nc1ccccc1C(=O)NC(Cc1ccccc1)C(=O)O)c1ccccc1 (stereo unspecified) | -2
COc1cc(/C=C/C(=O)NCC(=O)N2CCC(N(C)CCN3CCOCC3)CC2)ccc1OC(C)C | 16
Cc1ccc(C)c(NC(=O)CN(C)C(=O)c2cc3ccccc3o2)c1 | 6
CC(C)(C)N1CC(OC(N)=O)C1 | 27
O=C(COC(=O)c1cccc(O)c1)NCc1ccc2c(c1)OCO2 | 12
COc1ccc(N(C(=O)CNC(=O)c2cccs2)C(C(=O)NC2CCCC2)c2cccnc2)cc1 (stereo unspecified) | 32
O=C(O)CCCNS(=O)(=O)Cc1ccccc1 | 12
CC(C)CC(C(=O)NC(C)(C)C)N(CC1CCCO1)C(=O)c1snc(C(N)=O)c1N (stereo unspecified) | 14
Cc1ccc(-c2nc3c(c(=O)[nH]c(=O)n3Cc3ccccc3)n2C)s1 | 20
CCc1ccc(/C=C2\SC(N3CCCC3)=NC2=O)cc1 | 10
CC(=O)N(CCCN(C)C)Cc1ccccn1 | 17

# This is a subset; rates above refer to the full screens.
